RecA intein inh: inhibitors of M. tuberculosis RecA intein splicing; cell-free RecA intein splicing, fluorescence; P9WHJ3; AID 2221; actives 0.75% (n = 290,000); inhibition, %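 (about 9 µM by stock and volumes)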; in the data active = inhibition above about 30%; inconclusive = no clear call, values can overlap the other calls;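 also: 0% = vehicle wells and 100% = reference inhibitor control wells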
Target sequence (P9WHJ3 whole entry, looked up): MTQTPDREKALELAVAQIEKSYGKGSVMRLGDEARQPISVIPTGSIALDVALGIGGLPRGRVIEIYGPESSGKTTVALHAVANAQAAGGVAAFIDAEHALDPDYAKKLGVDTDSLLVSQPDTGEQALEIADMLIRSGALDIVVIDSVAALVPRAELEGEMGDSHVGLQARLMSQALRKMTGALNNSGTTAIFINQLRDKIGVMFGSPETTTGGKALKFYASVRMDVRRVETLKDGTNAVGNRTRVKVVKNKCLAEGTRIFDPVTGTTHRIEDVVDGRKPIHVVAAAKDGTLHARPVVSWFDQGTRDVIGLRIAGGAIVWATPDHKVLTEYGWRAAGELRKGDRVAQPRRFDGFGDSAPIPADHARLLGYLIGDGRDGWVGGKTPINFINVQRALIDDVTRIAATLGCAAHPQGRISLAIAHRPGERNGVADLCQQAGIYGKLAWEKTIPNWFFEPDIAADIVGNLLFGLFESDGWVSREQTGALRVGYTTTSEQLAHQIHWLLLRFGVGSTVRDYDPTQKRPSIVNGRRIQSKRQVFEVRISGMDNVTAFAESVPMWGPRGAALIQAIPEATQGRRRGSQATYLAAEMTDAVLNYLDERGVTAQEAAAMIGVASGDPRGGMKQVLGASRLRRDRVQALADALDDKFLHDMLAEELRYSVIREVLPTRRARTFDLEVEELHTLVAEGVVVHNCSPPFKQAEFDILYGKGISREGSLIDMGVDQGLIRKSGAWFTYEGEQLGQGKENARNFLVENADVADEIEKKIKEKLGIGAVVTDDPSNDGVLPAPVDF
YopH PTP inh: inhibitors of Yersinia enterocolitica YopH tyrosine phosphatase | inhibition, %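 (about 10 µM by stock and volumes)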 | fluorescence Ex485/Em525 | actives 0.16% (n = 140,000);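 active = inhibition of 50% or more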;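 also: controls were vehicle for no effect and minimum signal wells for full effect; inactives centre near -20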
Mtb growth: M. tuberculosis H37Rv growth inhibitors, H37Rv strain (AID 1626). actives 0.95% (n = 220,000). inhibition, % at 10 µM, or IC50 in µM where a hit was titrated. M. tuberculosis H37Rv growth inhibition; higher % means a stronger effect;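 active = confirmed in a dose series; inconclusive = inhibition above 80% but not taken into the dose series; inactive = below 80% or under 30% at every dose of the series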;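 also: bacteria incubated seven days before Alamar blue readout; 0% = bacteria only wells and 100% = bacteria with antibiotic wells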
Mtb betalactam: beta-lactam sensitization of Mtb H37Rv; AID 434955; actives 0.27% (n = 330,000); inhibition, % at 25 µM; M. tuberculosis H37Rv growth with meropenem, percent inhibition; hits of this screen are not shown here;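 active = about 74% or more and at least 40 points above the plate without the antibiotic, then above 30% in a dose series; inconclusive = first-round hits that could not be retested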;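 also: growth measured after seven days incubation then overnight dye step; 0% = bacteria only wells and 100% = bacteria with antibiotic; twin plates without the antibiotic show which effects depend on it; some results filed as inactive read as strong as hits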
Arbovirus inh: arbovirus infection inhibition | arbovirus infection cell-based antiviral screen | inhibition, % at 10 µM | actives 0.37% (n = 200,000);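 active = inhibition from about 30%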;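 also: bluetongue infection of BSR cells; cell survival read as ATP light after 72 h; 0% = infected wells without compound and 100% = uninfected wells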
Arbovirus inh repeat: also measured in Arbovirus inh; calls as there; inhibition, %; measured here: 10K subset replicate screen; many hits read low in the repeat;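 first of two repeat runs on a subset; 0% = infected and 100% = uninfected wells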
The depositor's hits bear a star; ? = inconclusive; / = no result given.

SMILES	RecA intein inh	YopH PTP inh	Mtb growth	Mtb betalactam	Arbovirus inh	others
CCCCn1cnc2cc(C)c(C)cc21	-4.3	/	0%	45	-4
Cc1cc(-c2ccc(C(C)C)c(S(=O)(=O)Nc3ccccn3)c2)on1	2.0	/	/	-6	/
CC(C)C(=O)N1CCN(c2ccccc2NC(=O)c2ccc([N+](=O)[O-])o2)CC1	-18	/	/	100	/
CCOc1ccc(C2N(c3ccc(F)cc3)C(=O)C3CCCN32)cc1 (stereo not drawn)	0.0	-47	1%	-3	-1	Arbovirus inh repeat=4
COC(=O)c1ccccc1OP(=O)(c1cccc([N+](=O)[O-])c1)c1cccc([N+](=O)[O-])c1	0.8	/	-14%	-2	/
CC(C)(C)c1ccc(C(=O)c2c[nH]c(C(=O)NCCc3ccccn3)c2)cc1	-1.3	/	-3%	-8	0
NS(=O)(=O)c1ccc(NC(=O)CN2CCN(S(=O)(=O)c3ccc(F)cc3)CC2)cc1	-0.2	/	/	8	/
CCn1c(-c2ccc(N(C)C)cc2)nc2ccccc21	1.8	-32	-8%	2	16
COc1ccccc1C(=O)OCC(=O)NC1CCCC1	0.0	/	/	1	/
Cc1cc(N2CCOCC2)n2nc(C)c(-c3ccc(Cl)cc3)c2n1	0.8	/	/	0	/
Nc1n[nH]c2cc(=O)n(-c3ccc(Cl)cc3)nc12	-7.3	/	-4%	-4	0
O=C(Nc1ccccc1)C1CCCCC1	-1.5	-28	-2%	-1	4

Reprinted from the part before: five compounds, then new ones.
SMILES	RecA intein inh	YopH PTP inh	Mtb growth	Mtb betalactam	Arbovirus inh	others
CCn1c(-c2ccc(N(C)C)cc2)nc2ccccc21	1.8	-32	-8%	2	16
COc1ccccc1C(=O)OCC(=O)NC1CCCC1	0.0	/	/	1	/
Cc1cc(N2CCOCC2)n2nc(C)c(-c3ccc(Cl)cc3)c2n1	0.8	/	/	0	/
Nc1n[nH]c2cc(=O)n(-c3ccc(Cl)cc3)nc12	-7.3	/	-4%	-4	0
O=C(Nc1ccccc1)C1CCCCC1	-1.5	-28	-2%	-1	4
CC(C)(C)c1ccc(C(=O)N2CCC(C(=O)N3CCCCC3)CC2)cc1	1.7	/	/	0	/
CCN(CCn1cccn1)Cc1cn[nH]c1-c1cccc2ccccc12	2.4	/	-3%	-4	/
O=C(C1CC1)N1CCc2cc(S(=O)(=O)NC3CCN(Cc4ccccc4)CC3)ccc21	-0.5	13	/	4	-3
O=S(=O)(Nc1nc2ccccc2[nH]1)c1ccc2ccccc2c1	-0.9	-7	8%	6	1
COc1ccc(C)cc1NC(=O)COC(=O)C1CCN(C(=O)c2ccc(Cl)cc2)CC1	1.8	/	4%	8	0
Cc1cc(C)c(NC(=O)C2CC(=O)N(c3ccc4c(c3)OCCO4)C2)c(C)c1 (stereo not drawn)	2.6	-18	3%	4	-2
COc1cc(OC)cc(C(=O)NCC(=O)N2CCCCC2)c1	-0.5	-43	-4%	-6	1
CC(O)CNCc1cccc2ccccc12 (stereo not drawn)	-1.4	-7	-57%	3	-3
O=C(Nc1ccc([N+](=O)[O-])cc1)N1CCc2ccccc2C1	4.0	/	/	2	/
Cc1cc(C(=O)CSCCCn2c(=O)[nH]c3ccccc32)c(C)n1C	0.5	14	-8%	4	1
Cn1c(=O)cc(OCC(=O)NCc2cccs2)c2ccccc21	-1.3	/	-13%	-4	1
N#CCC(=O)NC(=O)NCC1CC1	-0.4	-36	-10%	-1	-2
CCCCn1nnnc1NCc1cc(OC)c(OC)c(OC)c1	0.9	-41	-5%	-8	-1
O=C(/C=C/c1ccco1)OCC1CCCN2CCCCC12 (stereo not drawn)	-0.7	/	87%	-3	-11
COc1cc2nc(CC(C)C)n(NC(=O)c3ccccc3Br)c(=O)c2cc1OC	-0.5	/	/	-3	/
O=C(c1ccc(F)cc1)N(C(=O)c1ccc(F)cc1)c1ncccn1	0.3	/	4%	3	12
O=C(Nc1ccc(Cl)cc1)Nc1nnc(CSc2ccc(Cl)cc2)s1	-0.6	-6	-6%	-8	22
COc1cc(C(=O)N2CCN(C3CCCCC3)CC2)cc(OC)c1OC	-0.1	/	/	2	/
Cc1ccccc1CSc1nc(-c2ccccc2)cc(=O)[nH]1	0.4	-11	1%	5	10
O=S(=O)(Nc1nc2ccccc2nc1Cl)c1ccccc1	-0.7	-5	0%	-2	14
Cc1onc(-c2ccccc2Cl)c1C(=O)N1C=CC(C(F)(F)Cl)=NCC1	1.1	-19	1%	2	3
Brc1ccc(/C=N/c2nc3ccccc3n2CCN2CCOCC2)cc1	-2.0	-20	0%	0	3
COc1ccc2c(c1)c1ncn(Cc3ccco3)c(=O)c1n2C	-6.5	11	0%	15	-5
CCn1c(/C=N/Nc2ccc(C(=O)O)cc2)nc2ccccc21	-5.3	-18	1%	0	-2
O=C(NCCS(=O)(=O)N1CCN(c2ccccc2F)CC1)c1cccs1	-2.3	/	/	-7	/
CC(=O)NC12CC3CC(C1)CC(C(=O)OCC(=O)Nc1ncc(Cl)c(C)c1Cl)(C3)C2	/	-24	-5%	-11	2
Cc1cn(C2OC[C@@H](O)[C@@H]2CO)c(=O)[nH]c1=O (stereo partly drawn)	-1.5	/	/	2	/
O=S(=O)(/N=C(/c1ccc(F)cc1)N1CCCCC1)c1ccc(Cl)cc1	1.2	-16	-6%	2	-10
COc1ccc(CNc2cc(C)ccn2)cc1	-0.3	/	/	4	/
Cc1ccc(C(=O)NCCc2nnc3ccc(SCC(=O)Nc4ccccc4C)nn23)cc1	-1.7	-10	-1%	76	-4
CCN(CC)S(=O)(=O)c1cccc(NC(=O)/C=C/c2ccc([N+](=O)[O-])cc2)c1	3.1	-20	4%	?	1
CCOc1ccc(NC(=O)CCC(=O)N/N=C(\C)c2cccs2)cc1	-2.6	/	/	93	/
Cc1nn(CC2CC2)c(=O)n1N(C)c1ncc(C(F)(F)F)cc1Cl	-1.1	/	2%	-3	5
CCCNC(=O)CSc1nccn1Cc1ccco1	-0.8	/	9%	-1	2
O=S(=O)(Nc1cccc(-c2cn3c(n2)SCC3)c1)c1ccccc1F	-384	/	/	-11	/
O=C(NC1CC1)c1ccc(C2SCC(=O)N2Cc2ccccc2)cc1 (stereo not drawn)	0.2	/	0%	-8	-1
Cc1ccsc1C(=O)OCc1nc2ccccc2c(=O)[nH]1	1.1	-14	1%	-9	0
COc1ccccc1NC(=O)CN1CCC(n2c(C)nc3cc(F)ccc32)CC1	-0.8	-19	2%	12	33*
COc1ccc([N+](=O)[O-])cc1NC(=O)c1csc(C)c1	0.4	/	/	-4	/
COc1ccccc1NC(=O)CC1C(=O)NCCN1C(=O)Nc1ccc(Cl)c(Cl)c1 (stereo not drawn)	-0.2	7	-8%	-7	-43
O=C(NNC1=Nc2cccc3cccc1c23)c1ccc(Br)cc1	-3.3	/	?	92	-15
CCOC(CNC(=O)Cn1nc(Cc2ccncc2)c2ccccc2c1=O)OCC	-1.2	/	/	-5	/
Cc1c(C(=O)Nc2ccccc2)c2cc(O)ccc2n1Cc1ccccc1	-0.4	/	/	1	/
COc1cc(NC(=S)NCc2ccco2)cc(OC)c1	2.6	2	-3%	-4	0
CCCn1c(SCC(=O)NCc2ccco2)nnc1C(C)C	-1.1	-37	-6%	-5	0
COC(=O)CCC(=O)Nc1cccc(Cl)c1	1.5	8	-9%	0	2
Cc1ccc(NC(=O)Nc2ccc(F)cc2F)c(OC(F)F)c1	1.6	/	-6%	-3	-1
Cc1cc(NC(=O)C(C)SCC(=O)OCC(=O)N(C)c2ccccc2)no1 (stereo not drawn)	2.3	/	/	-3	/
O=C(COC(=O)Cc1ccc(Cl)cc1)Nc1ccc(OC(F)F)cc1	0.7	-18	-7%	7	3
CCCn1c(Cc2ccccc2)n[nH]c1=S	2.2	-1	-1%	0	12
COc1ccc(NC(=O)CN(C)CC(=O)Nc2cccc(F)c2)cc1Cl	2.4	/	32µM*	68	-13
CSCCC(NC(=O)/C(=C/c1ccc2c(c1)OCO2)NC(=O)c1cccc([N+](=O)[O-])c1)C(=O)O (stereo not drawn)	-2.2	/	5%	3	6
Cn1c(O)c(/C=N/c2ccccn2)c(=O)n(C)c1=O	0.5	-9	-5%	2	4
COc1cc(C(=O)N(c2ccc(C)c(C)c2)C2C=CS(=O)(=O)C2)cc(OC)c1OC (stereo not drawn)	-0.2	/	-1%	-1	6
OCC1(Cc2ccc(F)cc2F)CCCN(CCCc2ccccc2)C1 (stereo not drawn)	1.1	/	/	5	/
COc1ccc2[nH]c3c(C)c4ccncc4c(C)c3c2c1	/	/	?	100	/
CCOc1ccc(S(=O)(=O)N2CCN(C(=O)c3cc4c(s3)CCCC4)CC2)cc1	9.9	-23	?	11	3
c1ccc(-c2nc3ccccc3[nH]2)cc1	-1.6	/	/	3	/
CC(=O)c1c(C)nc(-c2ccccc2)nc1NC(=O)C(C)C	-1.4	0	-7%	-8	-10
CC(=O)c1cccc(NC(=O)c2cc(-c3ccco3)on2)c1	-0.3	/	/	5	/

The list goes on:
SMILES	RecA intein inh	YopH PTP inh	Mtb growth	Mtb betalactam	Arbovirus inh	others
Cc1cccc(Nc2nc(NCCO)nc(N3CCCC3)n2)c1	-3.9	/	-1%	-2	/
COc1cccc(-c2cc(C(=O)N3CCCCCC3)no2)c1	2.8	9	10%	-1	-2	Arbovirus inh repeat=-6
Cc1nn2c(COc3ccc(NC(=O)c4ccccc4Cl)cc3)nnc2c2ccccc12	-38	11	13%	2	-6
O=C1NC(=O)C(Cc2cccc(Oc3ccccc3)c2)S1 (stereo not drawn)	-1.0	/	/	3	/
CSc1cccc(NC(=O)CN(c2ccc(C)cc2C)S(C)(=O)=O)c1	6.5	-41	6%	-5	5	Arbovirus inh repeat=-1
Cc1ccc(/C=N/Nc2cn[nH]c(=O)n2)o1	-2.8	/	-3%	7	4
Cc1cc(C)c(C#N)c(SCC2COc3ccccc3O2)n1 (stereo not drawn)	8.9	-31	-10%	-3	0
O=c1c2ccccc2oc2cc(OCc3ccc(F)cc3)cc(O)c12	-2.9	/	/	5	/
Cn1ccnc1SCC(=O)N1CCc2ccccc21	-2.5	/	/	-2	/
CC(C)N1CCN(Cc2ccc3c(c2)Cc2ccccc2-3)CC1CCO (stereo not drawn)	-2.6	/	2%	2	-36
Cc1cc(C(C)(C)C)cc(C)c1S(=O)(=O)N1CCN(C(=O)c2cc([N+](=O)[O-])c[nH]c2=O)CC1	1.9	/	/	-2	/
Oc1ccccc1-c1cc(C(F)(F)F)nc(-c2ccccc2)n1	-1.2	/	13%	-1	14

An excerpt from above in order of heavy-atom count, ascending:
SMILES	RecA intein inh	YopH PTP inh	Mtb growth	Mtb betalactam	Arbovirus inh	others
O=C1NC(=O)C(Cc2cccc(Oc3ccccc3)c2)S1 (stereo not drawn)	-1.0	/	/	3	/
COc1cccc(-c2cc(C(=O)N3CCCCCC3)no2)c1	2.8	9	10%	-1	-2	Arbovirus inh repeat=-6
O=c1c2ccccc2oc2cc(OCc3ccc(F)cc3)cc(O)c12	-2.9	/	/	5	/

Other compounds
SMILES	RecA intein inh	YopH PTP inh	Mtb growth	Mtb betalactam	Arbovirus inh	others
CCn1c(SCC(=O)N/N=C/C=C\c2ccccc2[N+](=O)[O-])nc2ccccc21	2.2	-12	-9%	5	-2
O=C(CCN1CCCCC1)N/N=C/c1c[nH]c2ccccc12	-0.9	/	-5%	-5	/
N#C/C(=C/c1ccc(CNS(=O)(=O)c2ccccc2)o1)C(N)=O	2.6	-16	6%	5	3
Cc1cc(C)c(C)c(OCCCCn2cnc3ccccc3c2=O)c1	1.7	-32	2%	12	-11
COc1ccc(-c2nc(CSCC(=O)N3CCc4ccccc43)c(C)o2)cc1OC	0.6	-32	-5%	-5	1
Cc1ccc(N(CC(=O)NC(C)c2ccccc2)S(=O)(=O)c2c(C)noc2C)cc1 (stereo not drawn)	-2.1	/	/	-4	/
O=C(C1CCCCC1)N1CCC(c2nc3c(nnn3Cc3c(F)cccc3Cl)c(=O)[nH]2)CC1	6.5	7	17%	8	-10
CCN(CC)C(=O)Cn1cnc2sc(C(=O)N3CCN(c4ccc(F)cc4)CC3)c(C)c2c1=O	0.6	/	-9%	-4	1
C/C(=N\NC(=O)c1ccc(C)cc1C)c1ccc2c(c1)Nc1ccccc1S2	-19	-21	22%	6	-24
Cc1cc(OC(C)C(=O)N(Cc2ccco2)C2CCS(=O)(=O)C2)cc(C)c1Cl (stereo not drawn)	-3.8	/	/	-1	/
Cn1cc(C(=O)c2ccc(Cl)cc2Cl)cc1C(=O)O	0.0	-43	/	-6	3
Cc1ccc(S(=O)(=O)Cc2csc(N)n2)cc1	-1.5	-25	8%	-10	-4
O=C(CN1CCOCC1)Nc1ccccc1	/	-9	-10%	0	2
COc1ccccc1CNC(=O)CCCn1c(=O)c2ccccc2n(CC(=O)NC2CCCC2)c1=O	-1.1	-33	-5%	-3	-4

Not all compounds are listed; rates above refer to the full screens.
